# Assay outcomes deposited in PubChem BioAssay by National Center for Advancing Translational Sciences (NCATS).
# VACV mCherry inh = qHTS for Stage-Specific Inhibitors of Vaccinia Orthopoxvirus: mCherry Reporter Primary qHTS. Potency, µM (top dose mostly 36.5 µM), inactives show at the top dose activity change, negative = inhibition, actives largely listed as inhibitors. Vaccinia virus mCherry reporter infection, fluorescence; about a quarter of the inactives have no number. 310,000 tested, 0.63% active; active = well fitted inhibition curve with a large enough effect; inconclusive = small, poorly fitted or top-dose-only effect; inactive = no such curve, though single readings can be large or run the other way; tested in A549 cells; note: nearly all actives have a fitted effect of over 35% in size; inactives centre near -10
# Vaccinia Venus = qHTS for Stage-Specific Inhibitors of Vaccinia Orthopoxvirus: Venus Reporter Primary qHTS; Vaccinia virus Venus reporter expression, fluorescence; Potency, µM (series often up to 36.5 µM), for inactives: at the highest dose activity change, negative = inhibition, usual class: inhibitors; 330,000 tested, 0.46% active; AID 720580, 2013; active means well fitted inhibition curve with a large enough effect; inconclusive means small, poorly fitted or top-dose-only effect; inactive means no such curve, though single readings can be large or run the other way; tested in A549 cells; note: nearly all actives have a fitted effect of over 30% in size; inactives centre near -10
# The depositor's hits bear a star; i = inactive; ? = inconclusive; . = no result given; & = joins results of further samples; [ ] = dose if it differs, or a comment. % is set by controls: 0 for no effect and ±100 for the full control effect; potency is the fitted concentration of half-maximal effect.
SMILES,VACV mCherry inh,Vaccinia Venus
N=c1n(Cc2ccc(Cl)cc2)c2ccccc2n1CC(O)COc1ccccc1 (stereo unspecified),28µM*,?
CCCCOc1ccc(C(=O)Nc2ccc(OCC(=O)N3CCOCC3)cc2)cc1,-8%,-16%
N#Cc1ccccc1S(=O)(=O)N1CCN(C(=O)Cc2coc3cc(O)ccc23)CC1,i,-13%
COc1ccc2c(c1)c(C(C)=O)c(C)n2-c1ccccc1OC,0%,-16%
CC1(c2ccccc2)NC(=O)N(CC(=O)Nc2ccc([N+](=O)[O-])cc2)C1=O (stereo unspecified),-2%,-13%
Nc1c(Cl)ncnc1N/N=C/c1cccnc1,-14%,6%
CCCCn1c(CCC(=O)O)ccc1-c1cccs1,i,-5%
CN(CC(=O)O)Cc1nc2ccccc2[nH]1,-12%,-7%
CN1CCC2(CC1)N=C(c1ccc(F)cc1)C(=S)N2C(=O)c1ccccc1,-2%,-10%
O=c1c2oc3nc4c(cc3c2ncn1CCCc1ccccc1)CCCC4,?,-28%
O=C(c1cccc([N+](=O)[O-])c1)c1ccc2c(c1)OCCOCCOCCO2,-5%,-5%
CCOC(=O)c1[nH]ncc1CN1CCc2ccc(NC(=O)C3CCCO3)cc2C1 (stereo unspecified),-7%,-3%
COc1ccccc1OCCNC(=O)Nc1cc(F)c(F)cc1Cl,i,-21%
Cc1cccc(-n2ccnc2SCC(=O)Nc2nnc(C)s2)c1,-6%,-22%
C=Cc1c(C)c2cc3[nH]c(cc4nc(cc5nc(cc1[nH]2)C(C)=C5CCC(=O)O)C(CCC(=O)O)=C4C)c(C)c3C=C,18%&11%&-12%&-1%,-6%&-11%&-2%&-6%
COC(=O)Nc1c(-c2ccccc2)nc2ccc(C)cn12,-2%,-4%
C[C@@H]1CN([C@H](C)CO)C(=O)CCCn2cc(nn2)CO[C@H]1CN(C)S(=O)(=O)c1ccc(-c2ccccc2)cc1,-6%,-21%
CCOC(=O)c1ccc(NC(=O)Cn2c(=O)cc(C)c3c(C)nn(-c4cccc(F)c4)c32)cc1,-9%,-4%
COc1cc(NC(=O)Nc2nc(C(N)C3CCCCC3)cs2)cc(OC)c1OC (stereo unspecified),?,?
O=C(C1CCN(c2nnc(-n3cccc3)s2)CC1)N1CCN(Cc2ccc3c(c2)OCO3)CC1,-22%,-14%

# Profiles as entered above:
# Listed for `Cc1cccc(-n2ccnc2SCC(=O)Nc2nnc(C)s2)c1` → VACV mCherry inh = -6%; Vaccinia Venus = -22%
# Listed for `CCOC(=O)c1ccc(NC(=O)Cn2c(=O)cc(C)c3c(C)nn(-c4cccc(F)c4)c32)cc1` → VACV mCherry inh = -9%; Vaccinia Venus = -4%

# (cont.)
SMILES,VACV mCherry inh,Vaccinia Venus
COc1ccccc1CNC(=O)c1ccc(S(=O)(=O)N(C)c2ccccc2)cc1,i,-15%
O=S1(=O)CCN2C(c3ccco3)=CSC2=N1,-21%,-12%
COc1ccc(CCNC(=O)CC2SC(=NCCc3ccccc3)NC2=O)cc1 (stereo unspecified),-1%,0%
Cc1oc(-c2cccc(Cl)c2)nc1CN1CCCC(C(=O)NC(C)c2ccc3c(c2)OCCO3)C1 (stereo unspecified),?,-27%
CCCN(CCC)C(=O)Cn1c(=O)n(-c2cccc(OC)c2)c(=O)c2c(C)c(C(=O)N(C)C)sc21,5%,7%
O=C(NCC(c1ccco1)N1CCCCC1)c1cccc(NS(=O)(=O)c2ccc(Br)cc2)c1 (stereo unspecified),-3%,-17%
O=C(NCc1ccncc1)C1CCC(=O)N(CCc2ccc(Cl)cc2)C1 (stereo unspecified),-11%,-10%
CCOc1ccc(-c2nnc(SCC(=O)c3ccccc3)n2-c2ccccc2)cc1,-16%,-26%
CCc1nc2ccc(C(=O)N3CCN(C(=O)c4ccco4)CC3)cn2c1N(CC)Cc1cccc(Br)c1,-19%,-21%
Cc1ccccc1-c1noc(C(C)NC(=O)c2ccco2)n1 (stereo unspecified),-4%&-3%,6%&-4%
CCC1CCc2c(sc3nc(SCC(=O)NCc4ccco4)n(-c4ccccc4)c(=O)c23)C1 (stereo unspecified),.,11%
CCOc1cccc(/C=N/NS(=O)(=O)c2ccc(C)c([N+](=O)[O-])c2)c1O,0%,-2%
CCCN1CCN(CCCNC(=O)c2cc3c(s2)-c2c(C)cccc2OC3)CC1,-24%,-27%
COc1ccc(C(=O)C2CCCN(Cc3cccn3-c3ccc(Cl)cn3)C2)c(OC)c1 (stereo unspecified),-16%,-28%
Cc1cc(C)cc(NC(c2nnc(-c3cccc(F)c3)o2)c2ccc(F)cc2Cl)c1 (stereo unspecified),-12%,-7%
CCOC(=O)c1cnc2c([N+](=O)[O-])cnn2c1C,-7%,-8%
O=C(Nc1ccccc1C(=O)OCc1cc(=O)n2ccsc2n1)c1ccccc1Cl,-13%,-13%
CC(C)Oc1ccc(CN2CCC2(C)C(=O)Nc2cnc3ccccc3c2)cc1 (stereo unspecified),21%,-14%
CN(CCc1ccccn1)C(=O)c1nn2c(C(F)(F)F)cc(-c3ccco3)nc2c1Cl,.,?
Cc1ccc(C)c(OCc2nc3ccc(S(=O)(=O)Nc4c(C)n(C)n(-c5ccccc5)c4=O)cc3[nH]2)c1,0%,-11%
COc1ccc(CCNC(=O)CCCn2nc(C)c([N+](=O)[O-])c2C)cc1OC,i,14%
CCOC(=O)c1ccc(NC(=O)COc2cc3oc(=O)c(CC(C)O)c(C)c3cc2Cl)cc1 (stereo unspecified),-15%[7.34 µM],-10%[7.34 µM]
O=C(Nc1cccc(S(=O)(=O)NC2=NCCCCC2)c1)c1cc(-c2ccncc2)nc2ccccc12,-11%,-16%
O=C(CN1CCN(C(=O)c2ccco2)CC1)Nc1c2c(nc3c1CCC3)CCCC2,.,-4%
Cn1c(=O)n(C)c2cc(N3CCCCC3)c(NC(=O)c3ccc(Cl)cc3)cc21,-5%,-10%
O=[N+]([O-])c1ccc(-c2cc(-c3ccc(Cl)cc3)n[nH]2)cc1,-16%,-24%
O=c1c(-c2cc3ccccc3[nH]2)nc2ccccc2n1C(CCc1ccccc1)c1nc2ccccc2[nH]1 (stereo unspecified),i,-17%
CC(OC(=O)C1CC1)C(=O)Nc1cccc(S(=O)(=O)N2CCOCC2)c1 (stereo unspecified),-20%,-12%
Cc1cc(CN2CCCC(C(=O)Nc3cccc(-n4cccn4)c3)C2)cc(C)c1O (stereo unspecified),-11%[7.34 µM],-4%[7.34 µM]
OCc1ccccc1,-16%,-8%
O=C(CCNS(=O)(=O)c1ccc(Br)s1)N1CCN(c2ccccc2)CC1,i,-13%
CCOCCCNCc1ccc(OC)c(OC)c1,-20%,-12%
O=C(c1ccc(=O)[nH]c1)N1CCN(S(=O)(=O)c2ccc(Cl)cc2)CC1,-3%,-14%
CCCCN1C(=O)C2C(C(=O)Nc3cccc(OC)c3)C3C=CC2(O3)C1C(=O)NC1CCCCC1C (stereo unspecified),-5%,-5%
Fc1ccc(Nc2nc(SCc3cccc(F)c3)nc3ccccc23)cc1,-1%,-12%
Cc1cccc(C)c1-n1nnnc1-c1nc2ccccc2[nH]c1=O,-2%,-1%
Cc1ccc(CN2CC(C(=O)N3CCN(c4ccccc4O)CC3)CC2=O)cc1 (stereo unspecified),-13%,-12%
Cc1ccc(-c2nc(C)c(CCNC(=O)C(=O)Nc3ccc(C)c(Cl)c3)s2)cc1,-27%,-22%
C=CCOC(=O)C1C(=O)CC(C)(O)C(C(=O)OCC=C)C1c1ccc(OC)cc1 (stereo unspecified),-14%,-5%
CC1CCN(C(=O)Cn2cc(SCC(=O)Nc3ccccc3C(F)(F)F)c3ccccc32)CC1,6%,-7%
Cc1cc(C)cc(NC(=O)CCn2cnc3ccccc3c2=O)c1,i,-3%
Cc1cccc(C(=O)Nc2nnc(-c3ccc(C(C)(C)C)cc3)s2)c1,-17%,-10%
COc1ccc(N(CC(O)Cn2cnc3ccccc32)S(=O)(=O)c2ccc(C)cc2)cc1 (stereo unspecified),1%,-17%
CCOC(=O)Cc1c(C)nc2cc(C)nn2c1C,-9%,-13%
COc1cccc(-c2ccc(C#N)c(SCC(=O)NCCc3cccc(Cl)c3)n2)c1,-14%,-24%
Cc1cc(N2CCN(C(=O)c3ccco3)CC2)nc(-c2ccccc2)n1,-24%,-20%
Cc1cc(S(=O)(=O)NCc2cccnc2)ccc1-n1cnnn1,i,0%
Cc1occc1-c1nnc(SCC(=O)N2CCCCC2)n1C,i,-9%
O=C1Nc2c(c(=O)[nH]c(=O)n2-c2ccccc2)C1(Nc1ncccn1)C(F)(F)F (stereo unspecified),.,-8%
Cc1cc(=O)oc2c(C)c(OC(C)C(=O)NCc3ccccn3)ccc12 (stereo unspecified),-5%,-6%

# No new results follow: 3 of the compounds above.
SMILES,VACV mCherry inh,Vaccinia Venus
N=c1n(Cc2ccc(Cl)cc2)c2ccccc2n1CC(O)COc1ccccc1 (stereo unspecified),28µM*,?
CCCCOc1ccc(C(=O)Nc2ccc(OCC(=O)N3CCOCC3)cc2)cc1,-8%,-16%
N#Cc1ccccc1S(=O)(=O)N1CCN(C(=O)Cc2coc3cc(O)ccc23)CC1,i,-13%

# Carrying on:
SMILES,VACV mCherry inh,Vaccinia Venus
COc1ccccc1C1C(C(N)=O)=C(C)Nc2nc(-c3ccc(Cl)cc3)nn21 (stereo unspecified),-6%,-13%
O=C(NCc1cccc(Br)c1)c1ccc(NC(=O)N2CCCCc3ccccc32)cc1,?,?
S=c1[nH]nc(-c2ccc(Br)cc2)n1-c1ccc2c(c1)OCCO2,-13%,-4%
COc1ccc(C(=O)NC(=S)N2CCCc3ccccc32)cc1OC,-10%,-18%
CCCCS(=O)(=O)Nc1ccc(C(=O)NCC2CCCO2)cc1 (stereo unspecified),-6%,-2%
Cc1c(C2=CCN(S(=O)(=O)c3ccc(Cl)cc3)CC2)c2ccccc2n1C,-13%,-3%
C[N+]1(CCOc2ccc([N+](=O)[O-])cc2)CCOCC1,.,-1%
COc1ccc(-c2nc(C)c(CCNC(=O)c3ccccc3Br)s2)cc1OC,-8%[7.34 µM],-1%[7.34 µM]
CN1CCN(C(=S)NC(=O)/C=C/c2cccc3ccccc23)CC1,-23%,-15%
Cc1ccc(OC(C)C(=O)Nc2ccccc2C(=O)NCc2cccnc2)cc1C (stereo unspecified),-8%,-17%
CCN(CC)S(=O)(=O)c1ccc(NC(=O)Cn2ncc3c([nH]c4ccccc43)c2=O)cc1,-6%,-14%
O=S(=O)(Nc1ncccn1)c1ccc(NC(=S)N2CCN(c3cccc(C(F)(F)F)c3)CC2)cc1,-16%,0%
COc1ccc(-n2c(C)nc3cc(C(=O)N4CCC5(CC4)OCCO5)ccc32)cc1,.,?
CCOC(=O)NC(=O)COC(=O)Cc1cc(OC)c(OC)c(OC)c1,-22%,-9%
O=c1c(NCc2cccs2)nccn1-c1ccc(F)cc1,-4%[7.34 µM],0%[7.34 µM]
O=C(Cc1ccccc1)Nc1sc2c(c1C(=O)Nc1ccc(Cl)cc1)CCCC2,-10%,-11%
COc1cc(OC)cc(C(=O)N2CCN(C(=O)c3ccc(-c4ccccc4)cc3)CC2)c1,-2%,-17%

# Structural class: the compounds so far containing fluorine.
SMILES,VACV mCherry inh,Vaccinia Venus
CN1CCC2(CC1)N=C(c1ccc(F)cc1)C(=S)N2C(=O)c1ccccc1,-2%,-10%
COc1ccccc1OCCNC(=O)Nc1cc(F)c(F)cc1Cl,i,-21%
CCOC(=O)c1ccc(NC(=O)Cn2c(=O)cc(C)c3c(C)nn(-c4cccc(F)c4)c32)cc1,-9%,-4%
Cc1cc(C)cc(NC(c2nnc(-c3cccc(F)c3)o2)c2ccc(F)cc2Cl)c1 (stereo unspecified),-12%,-7%
CN(CCc1ccccn1)C(=O)c1nn2c(C(F)(F)F)cc(-c3ccco3)nc2c1Cl,.,?
Fc1ccc(Nc2nc(SCc3cccc(F)c3)nc3ccccc23)cc1,-1%,-12%
CC1CCN(C(=O)Cn2cc(SCC(=O)Nc3ccccc3C(F)(F)F)c3ccccc32)CC1,6%,-7%
O=C1Nc2c(c(=O)[nH]c(=O)n2-c2ccccc2)C1(Nc1ncccn1)C(F)(F)F (stereo unspecified),.,-8%
O=S(=O)(Nc1ncccn1)c1ccc(NC(=S)N2CCN(c3cccc(C(F)(F)F)c3)CC2)cc1,-16%,0%
O=c1c(NCc2cccs2)nccn1-c1ccc(F)cc1,-4%[7.34 µM],0%[7.34 µM]
